MT1-MMP act inh = inhibitors of human MT1-MMP activation; HT1080 RFP-PRO-GFP cells, GFP/RFP ratio fluorescence, overnight; percent of plate control window, DMSO zero; GFP/RFP ratio change, % at 20 µM; hit rate 0.061% among 360,000; AID 651647;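 active = GFP/RFP ratio change of at least 30% with cell ATP level not reduced by more than half and red fluorescence within 50% of control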; note: strong numbers were not always called active
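Compound: 20 µM single dose, 1% DMSO / System: HT1080 RFP-PRO-GFP cells / Controls: DMSO and RFP-L50D-GFP cell wells / Read-out basis: GFP/RFP fluorescence ratio / Schedule: overnight compound exposure at 37 °C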
UUG fidelity = modulators of start codon recognition fidelity in yeast | S. cerevisiae UUG-firefly luciferase reporter, luminescence/redox ratio | activity score, % at 18.7 µM | hit rate 0.13% among 350,000 | AID 602363;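 active = replicate mean at a twofold rise or more, about +100% in these data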;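 note: firefly luciferase made from a UUG start codon reports start codon fidelity; reporter light over untreated wells divided by growth signal over untreated wells; some hits fall short of that in this replicate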
eIF4H inh = inhibitors of RNA binding by human eIF4H; Q15056; eIF4H fluorescence polarization binding assay; inhibition, % at 35 µM; hit rate 0.94% among 290,000;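 active = 50% or more with normal probe brightness, or confirmed in later tests; about a fifth of its hits are not listed in these tables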;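 note: calls also rest on retests at 20 µM and on dose response follow-up; 0% = protein and probe with vehicle and 100% = probe without protein; strong numbers were not always called active; many hits fall short of the cut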
PABP polyA inh = PABP-poly(A) binding inhibition | hit rate 1% among 290,000 | AID 2014 | P11940 | PABP-poly(A) RNA binding, fluorescence polarization | inhibition, % at 35 µM;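 active = 50% or more with normal probe brightness, or confirmed in later tests; about a fifth of its hits are not listed in these tables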;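 note: calls also rest on retests at 20 µM and on dose response follow-up; controls were probe without protein and protein plus probe with vehicle; some compounds called inactive have numbers as strong as hits; many hits fall short of the cut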
Target sequence (P11940 whole entry, looked up): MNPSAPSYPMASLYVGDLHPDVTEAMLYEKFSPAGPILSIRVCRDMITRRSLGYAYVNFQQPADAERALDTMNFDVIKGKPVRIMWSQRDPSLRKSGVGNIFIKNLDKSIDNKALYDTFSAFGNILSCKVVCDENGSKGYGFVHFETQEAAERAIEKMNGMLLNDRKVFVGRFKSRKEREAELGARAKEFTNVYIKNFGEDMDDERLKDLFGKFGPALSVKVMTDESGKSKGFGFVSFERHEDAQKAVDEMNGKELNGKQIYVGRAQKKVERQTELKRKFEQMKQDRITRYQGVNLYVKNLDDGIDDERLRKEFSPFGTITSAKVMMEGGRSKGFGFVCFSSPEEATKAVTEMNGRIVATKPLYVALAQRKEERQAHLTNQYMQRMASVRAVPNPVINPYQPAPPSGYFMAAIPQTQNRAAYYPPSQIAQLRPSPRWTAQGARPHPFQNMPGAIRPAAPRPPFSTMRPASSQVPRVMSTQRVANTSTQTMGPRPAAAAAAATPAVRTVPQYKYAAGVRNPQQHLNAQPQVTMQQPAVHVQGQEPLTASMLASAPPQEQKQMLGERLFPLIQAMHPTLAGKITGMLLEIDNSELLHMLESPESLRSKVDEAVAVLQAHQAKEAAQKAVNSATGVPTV
HIV Env fusion = inhibitors of HIV Env-mediated cell fusion | HeLa-JRFL Env/CEM21 cell fusion, luciferase | inhibition, % at 12.3 µM | hit rate 1.1% among 360,000;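 active = mean replicate inhibition score of at least 50 and every replicate individually at or above 50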;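 note: 0% = plate neutral controls and 100% = maraviroc near 300 nM; one replicate is shown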
CSC inhib = blocks cancer stem cells | cancer stem cell-like cells viability, luminescence | inhibition, % at 7.5 µM | hit rate 1.1% among 300,000 | AID 2717;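 active = mean at 75% or more and at least half the replicates too; tested in HMLE shEcad cells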;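 note: 0% = median of negative and 100% = median of positive control wells; the first replicate is given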
Rce1 inh = inhibitors of yeast Ras-converting enzyme. yeast membranes, quenched prenylated peptide cleavage fluorescence. hit rate 0.27% among 290,000. calls only;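 active = fall in fluorescence gain of 50% or more versus controls, with final raw signal at or below 3038400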;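 note: plate controls were neutral control wells for no effect and wells lacking membranes for full effect; tested at 10 µM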
MT1-MMP act inh RFP = second read-out of MT1-MMP act inh, no call of its own (marks repeat the call); RFP signal change, %; measured here: RFP expression control read;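 0 = vehicle wells; hits needed this value within 50% of zero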
Starred values were filed as active, the others as inactive; i = inactive; / = not tested or not shown; + = active, no number; & = joins results of further samples; [ ] = dose if it differs, or a comment. Not all compounds are listed (hit frequency here may not be typical).

canonical_smiles	MT1-MMP act inh	MT1-MMP act inh RFP	UUG fidelity	eIF4H inh	PABP polyA inh	HIV Env fusion	CSC inhib	Rce1 inh
CCC1Oc2ccccc2N(CC(=O)NCc2ccco2)C1=O (configuration not stated)	3	6	/	-7	-2	8	-6	i
COc1ccc(NS(=O)(=O)c2cc(NC(=O)c3cccs3)ccc2N2CCCC2)cc1	-1	-11	/	-4	5	/	41	i
COC(=O)c1ccc(CSCC(=O)Nc2ccccc2)cc1	3	8	-12	1	-6	-2	1	i
Nc1nc(SCC(=O)NCCN2CCOCC2)nc2sc3c(c12)CCC3	0	3	/	2	-2	21	-4	i
Cc1ccc(Cl)cc1-c1cc(C(=O)NCc2ccco2)[nH]n1	3	3	-16	/	/	-18	/	/
COc1ccc(-c2oc(NC(C)=O)c(C#N)c2-c2ccc(OC)cc2)cc1	-6	-1	-16	0	-6	-106	28	i
CCOC(=O)N1CCN(C(=O)COc2ccc(Br)cc2)CC1	-2	3	-12	5	-5	/	-7	/
CCCCC12CN3CC(C)(CN(C1)C31C(=O)N(C)c3ccc(C)cc31)C2=O (configuration not stated)	-7	-5	-11	-6	-12	-36	-1	i
CONc1nc(NC(C)(C)C)nc(OCC#N)n1	-6	4	/	-12	-5	/	-10	i
O=C(C1=C[C@@H](c2ccccc2)C[C@@H](OCc2ccc(CO)cc2)O1)N1CCOCC1	-4	0	-7&2	-1	-15	13[16.7 µM]	-10	i
O=C(CCc1nnc(-c2ccccc2)o1)NCc1c(F)cccc1F	-1	2	/	8	-5	-14	-5	i
COCC(C)n1c(SCc2ccc(C(=O)OC)cc2)nc2ccccc2c1=O (configuration not stated)	-5	-4	22	-10	-2	1	-18	i
CC(NC(=O)c1ccc(Cn2cc([N+](=O)[O-])cn2)cc1)c1ccccc1 (configuration not stated)	1	2	/	1	17	16	-2	i
COc1cccc(/C=N/n2c(C3CCCCC3)n[nH]c2=S)c1OC	-2	-6	-25	-4	-3	5	-13	i
CCOc1cccc(-c2nn(-c3ccccc3)cc2/C=C(/C#N)C(=O)NCCCn2ccnc2)c1	-11	-16	/	-21	-6	-25	-9	+
CC(=O)Nc1cc(-c2cccnc2)cn2c(-c3cccc(C(F)(F)F)c3)cnc12	0	-3	0	/	/	-34	/	/
O=C(Nc1ccn(Cc2ccccc2)n1)c1ccc2c(c1)OCO2	9	0	/	-8	-5	-47	10	i
CCc1ccc(NC(=O)N2CCc3ccccc3C2)cc1	-1	-1	-20	-5	-7	-53	7	i
O=C(O)Cc1ccc(C(=O)c2ccc(F)cc2)s1	1	3	-17	5	-1	-3	/	i
N#CCCCCN1c2cccc3cccc(c23)S1(=O)=O	2	12	0	1	-4	-229	5	i
COc1cccc(NC(=O)[C@@H]2CCCN2C(=O)C2CCN(S(=O)(=O)c3ccc(C)cc3)CC2)c1	4	3	4	-4	15	-46	/	i
COc1ccc(-c2csc(Nc3ccc(S(=O)(=O)Nc4cc(C)on4)cc3)n2)cc1	3	0	/	3	0	-3	4	i
COCC(C)NC(=O)c1ccc(CN2CCc3ccccc3C2)cc1 (configuration not stated)	5	9	-10	-6	4	-34	-2	i
COc1ccc(C(=O)NN/C(=N/S(=O)(=O)c2ccc(C)cc2)c2ccccc2)cc1	0	-1	/	-4	-5	-79	-7	i
COc1ccc(-c2cc(-c3ccc(OC)cc3)c(C#N)c(SC)n2)cc1	1	-3	-14	-14	0	/	-4	i
CCCn1cnc2cc(NC(=O)c3ccco3)ccc21	1	4	-37	-5	-6	-27	-5	i
O=C1NCCN(Cc2ccc(Cl)c(F)c2)C1CC(=O)N1CCCO1 (configuration not stated)	-1	2	/	6	-5	-29	-13	i
CCCOC(=O)C1=C(C)NC(=O)NC1c1cccc2ccccc12 (configuration not stated)	0	-6	-14	-10	4	11	-5	i
CC(C)C(=O)Nc1ccc2c(c1)oc1ccccc12	-9	-1	-9	8	8	-91	21	i
O=C(Nc1ccc2c(c1)C(=O)OC2)c1ccc(Cl)cc1Cl	0	2	-21	-8	3	-24	0	i
CCN(CC)C(=O)c1ccc(NS(=O)(=O)c2ccc(/C=C/C(=O)O)cc2)cc1	-1	-1	/	-2	-4	-1	/	i
CCOc1ccc(NC(=S)N2CCC(c3ccc(C)cc3)C2)cc1 (configuration not stated)	-1	-3	-12	-2	-2	13	7	i
CC(=O)c1sc(-c2ccccc2)cc1NS(=O)(=O)c1ccc(C)cc1	4	0	-14	2	0	25	50	i
C=CCn1c(SCC#N)nc2ccccc2c1=O	-1	4	-18	-2	-9	/	-6	i
COc1ccc(CN(C)CC(=O)Nc2ccc(N3CCOCC3)cc2)cc1OC	0	1	/	-2	-15	15	-2	i
COc1ccccc1CSc1nc2c(c(=O)n(C)c(=O)n2C)n1C	3	0	-5	-7	-1	26	/	i
COc1ccc(S(=O)(=O)N2CCOCC2)cc1NC(=O)c1ccc2c(c1)OCCO2	-1	-8	-12	-4	16	26	-8	i
Cc1cc(C)n2nc(CNS(=O)(=O)c3ccc(F)c(C)c3)nc2n1	1	4	9	0	-14	9	-14	i
Cc1oc2cc3oc(=O)c4c(c3cc2c1C)CCC4	-10	2	-8	-7	5	-132	11	i
CC(CN1CCN(C)CC1)OC(=O)c1ccc(F)cc1 (configuration not stated)	2	1	-10	-4	-6	10	-5	i
COc1ccc(C=O)cc1COc1c(F)c(F)cc(F)c1F	-1	-11	-17	5	-2	-17	42	i
COc1ccccc1CCC(=O)NC1CCCN(c2ccc(C(F)(F)F)cn2)C1 (configuration not stated)	-1	0	-15	/	/	12	-10	i
CCCC(=O)Nc1nc2ccc(C(=O)OCC)cc2s1	2	-1	-11	-2	19	-49	7	i
Cc1ccnc(NC(=O)CCC(=O)c2cc(C)sc2C)c1	-12	1	-21	/	/	-9	-9	i
CCCN(C(=O)CSc1n[nH]c(-c2ccc(OC)cc2)n1)c1c(N)n(Cc2ccccc2)c(=O)[nH]c1=O	-1	0	-8	/	/	0	2	i
N#Cc1c(-c2ccccc2)cc(-c2ccccc2)nc1SCC(=O)O	2	1	-2	0	8	-6	4	i
O=C(c1ccc(Cn2cc(Cl)cn2)o1)N1CCN(Cc2ccc3c(c2)OCO3)CC1	-2	-1	1	-6	-4	/	-13	i
COc1ccc(S(=O)(=O)N(CC(=O)NCc2ccccn2)Cc2ccccc2)cc1	2	3	-11	-9	-5	-1	-11	i
N/C(=N\OC(=O)COc1ccc2ccccc2c1Br)c1ccncc1	/	/	/	2	2	/	20	i
CC1(C)NC(=O)N(CN2C(=O)NC(C)(C)C2=O)C1=O	10	0	-11	-9	5	-49	-14	i
c1ccc(NC2=NCCN2CC2CCCCC2)cc1	-3	0	-16	/	/	2	1	/
CCCCNC(=O)C1(C)CCCCN1C(=O)c1cc(-c2ccccc2)cs1 (configuration not stated)	-2	-7	1	/	/	-2	/	/
COc1ccc(CC(=O)Nc2ccc(C(=O)NC(C)(C)C)cc2)cc1	1	-1	/	-7	6	-3	-10	i
Nc1nnc(CC(=O)Nc2ccccc2)s1	1	4	7	0	8	-8	-20	i
CN1C[C@@H]2C[C@@H](c3ccc(C#CC(C)(C)O)s3)N3CCC[C@@]23C1=O	-1	5	/	4	-2	-10	-6	/
COc1ccc(OCC(O)CNCc2ccco2)cc1 (configuration not stated)	2	-3	-3	8	3	/	3	i
O=C(c1cccc(F)c1)N1CCN(C2CCCCC2)CC1	1	1	-8	-3	19	/	-22	i
O=c1c(-c2ccc(O)cc2)coc2cc(OC3OC(CO)C(O)C(O)C3O)cc(O)c12 (configuration not stated)	5	7	9	-4	0	-161	14	i
COC(=O)NCc1cc2cc(Cl)ccc2[nH]1	2	5	-11	14	28	/	0	i
O=C(NC1CCS(=O)(=O)C1)c1ccc(Br)s1 (configuration not stated)	-1	1	-12	/	/	7	-9	/

New compounds follow.
canonical_smiles	MT1-MMP act inh	MT1-MMP act inh RFP	UUG fidelity	eIF4H inh	PABP polyA inh	HIV Env fusion	CSC inhib	Rce1 inh
CC(C)Cc1ccc(CN2CCCC(NC(=O)Cn3cnnn3)C2)cc1 (configuration not stated)	4	-1	-5	-15	-2	/	-2	i
Cc1cccc(-n2nc3c(c2NC(=O)c2ccc(S(=O)(=O)N4CCOCC4)cc2)CSC3)c1C	10	-2	-3	-3	6	-118	/	/
Cc1nc(-c2ccccc2)cc(-c2ccccc2)n1	0	0	-1	/	/	6	-13	i
CCc1nc2ccc(C(=O)NCCCN3CCCC3=O)cn2c1N(CC)Cc1cccc(Br)c1	-3	-5	11	/	/	28	/	/
Cc1ccc(S(=O)(=O)n2nc(OC(=O)c3cccs3)cc2N)cc1	2	-3	-8	0	-3	-45	-10	i
Cc1ccc(C2(c3noc(CN4CCC(c5ccncc5)CC4)n3)CCCC2)cc1	-26	-33	69	-5	1	40	92*	/
O=C(N/N=C/c1ccccc1Cl)c1n[nH]c2c1CCCC2	7	4	/	-1	5	1	33	i
Cc1ccc(C)c(S(=O)(=O)Nc2cc3c4c(c2)CCC(=O)N4CCC3)c1	5	-10	/	/	/	4	-12	i
COc1ccc(C(=O)c2c[nH]c(C(=O)NCCCN3CCOCC3)c2)cc1	-1	3	/	7	0	15	-11	i
CCOC(=O)N1CCN(C(=O)CCCOc2ccccc2)CC1	7	-4	-7	-10	-9	-51	-9	i
OCc1nc2ccccc2n1CC(O)Cn1ccc2ccccc21 (configuration not stated)	-5	-24	-9	4	4	/	-6	i
CC(C)NC(=O)c1ccccc1NC(=O)/C=C/c1ccc([N+](=O)[O-])cc1	-5	-1	-8	-3	-2	-62	-13	i
C=CCn1c(SCC(=O)N(CCOC)c2c(N)n(CC(C)C)c(=O)[nH]c2=O)nc2ccccc21	0	4	-22	/	/	-2	-19	i
COc1ccc(CCN(C)C2CCCN(S(=O)(=O)N(C)C)C2)cc1OC (configuration not stated)	-1	2	0	/	/	-9	-7	i
CCCNS(=O)(=O)c1cc(Cl)ccc1OC	-5	-4	/	1	-2	-14	-1	i
C/C=N\NC(=O)COc1cc(C)ccc1C	5	7	/	-1	-4	11	1	i
Cc1cc(C)n(C(=O)CN(C)S(=O)(=O)c2ccc([N+](=O)[O-])cc2)n1	-2	-3	-6	-2	1	-4	-6	i
COc1ccc(C(=O)Nc2ccc3c(c2)nc(CCNC(C)=O)n3C)cc1	2	0	-16	3	10	-54	-5	i
Cc1nn(C)cc1S(=O)(=O)N1CCN(Cc2cccc(Cl)c2)CC1	0	2	/	-3	1	-3	-10	i
Cc1ccnc(NC(=O)C2CCN(S(=O)(=O)c3ccc(Cl)c(C(F)(F)F)c3)CC2)c1	0	-4	-12	/	/	-17	6	i
CCOC(=O)c1cc(-c2ccc([N+](=O)[O-])cc2)nc2c1c(=O)[nH]c(=O)n2Cc1ccccc1	2	-1	-13	36	0	13	1	i
CC(NC(=S)Nc1ccccc1Cl)C(c1cccs1)N1CCCC1 (configuration not stated)	-2	0	-7	-1	3	-7	-16	i
COc1ccc(NC(=O)c2ccccc2Cl)cc1NC(=O)CN1CCOCC1	-5	2	-2	0	-5	/	-6	i
N#Cc1ccccc1Cn1c(=O)n(Cc2ccc(C(=O)NCc3ccco3)cc2)c(=O)c2sccc21	-3	0	-10	10	-19	43	1	i

Source: PubChem BioAssay (several laboratories)
